# VDR inh: inhibitors of human vitamin D receptor; 400,000 tested, 0.93% active; AID 504847; VDR-SRC2-3 peptide fluorescence polarization, 2 h; P11473; Potency, µM, for inactives: max response, negative = inhibition, actives largely listed as inhibitors; active = well fitted inhibition curve with a large enough effect; inconclusive = small, poorly fitted or top-dose-only effect, or another doubt; inactive = no such curve, though single readings can be large or run the other way; note: series mostly up to about 120 µM
# Target sequence (P11473 whole entry, looked up): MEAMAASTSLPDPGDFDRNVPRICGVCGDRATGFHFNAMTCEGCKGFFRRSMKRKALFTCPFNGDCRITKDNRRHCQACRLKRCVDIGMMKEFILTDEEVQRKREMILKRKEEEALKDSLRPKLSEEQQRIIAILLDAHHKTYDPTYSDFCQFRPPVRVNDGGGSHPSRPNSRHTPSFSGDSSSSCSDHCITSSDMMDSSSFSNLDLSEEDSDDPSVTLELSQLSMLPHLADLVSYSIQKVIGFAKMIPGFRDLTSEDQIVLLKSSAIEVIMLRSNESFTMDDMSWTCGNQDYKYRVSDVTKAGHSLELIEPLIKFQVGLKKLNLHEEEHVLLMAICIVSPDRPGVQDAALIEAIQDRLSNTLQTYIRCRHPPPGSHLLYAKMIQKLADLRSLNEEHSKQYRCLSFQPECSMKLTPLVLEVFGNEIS
#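 VDR–SRC2-3 interaction, FP format. Cmpds 23 nl via pintool, brief spin, 2 h ambient incubation.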
# Active calls of the source: *; ? = inconclusive; & = joins results of further samples; [ ] = remark or other dose. % is set by controls: 0 for no effect and ±100 for the full control effect; potency is the fitted concentration of half-maximal effect.
SMILES,VDR inh
CCOC(=O)c1[nH]c2cc3c(cc2c1NC(=O)CN1CCC2(CC1)OCCO2)OCO3,4%
CC(=O)c1cccc(NC(=O)CSc2nc3c(c(=O)[nH]2)CCC3)c1,17%
Cc1ccc(S(=O)(=O)N2CCCCC2)cc1NC(=O)COC(=O)c1ccc(O)cc1,5%
CC(C)CC(CC(C)C)=NNC(=O)c1ccc2c(c1)OCO2,0%
CCS(=O)(=O)NCC(c1ccco1)N1CCN(c2ccccc2)CC1 (configuration not stated),-12%&19%
COc1ccc(NC(=S)N(CCCN2CCCC(C)C2)Cc2cccs2)cc1 (configuration not stated),-28%
CC1CC(C)(C)CC2(C1)NC(=O)N(CC(=O)NCCc1ccc3c(c1)OCCO3)C2=O (configuration not stated),-23%
Cn1c(SCC(=O)NNC(=O)Cc2ccccc2)nc2ccccc2c1=O,?
CCOC(=O)c1c(NC(=O)C(=O)N/N=C(\C)c2ccc(OC)cc2)sc2c1CCCCC2,-3%
O=C(NC1CC1)C1=C[C@@H](c2ccccc2)C[C@@H](OCCCCO)O1,3%
COc1cc(OC)cc(C(=O)Nc2ccc(-n3cnnn3)c(C)c2)c1,4%
CCCCC(=O)Nc1ccc(N2CCN(S(C)(=O)=O)CC2)cc1,-9%
O=C(CN1C(=O)NC(Cc2ccccc2)C1=O)Nc1ccccc1 (configuration not stated),1%
CSc1cccc(NC(=O)CC(c2cccs2)N2Cc3ccccc3C2=O)c1 (configuration not stated),-4%
Cc1nc2c(o1)CCc1ccccc1C2N1CCN(C)CC1 (configuration not stated),-3%&-2%&-2%
CC1CCN(S(=O)(=O)c2ccc3c4c2CC(=O)N4CC(C)S3)CC1 (configuration not stated),?
O=C(c1ccc(F)cc1)c1cccc(C(=O)c2ccc(F)cc2)n1,3%
COc1ccccc1CN1CC[C@@]2(CCCN(C(=O)c3cccc(F)c3)C2)C1,-5%
CC(NC(=O)c1cccc(F)c1)C(c1cccs1)N1CCN(C)CC1 (configuration not stated),-5%
O=S(=O)(c1ccc(Cl)c(Cl)c1)c1snnc1-c1ccccc1,?
CC(C)N(C(=O)COC(=O)c1ccc(Cl)c(S(N)(=O)=O)c1)C(C)C,?
COc1ccc(C(C(=O)NCc2ccccc2)N(Cc2ccco2)C(=O)c2snc(C(N)=O)c2N)cc1 (configuration not stated),-7%
O=C(CCN1C(=O)/C(=C/c2ccc(F)cc2)SC1=S)NCCc1ccc(O)cc1,-10%
COc1ccc(C(=O)Nc2ccc(N3CCN(C)CC3)cc2)cc1,12%
COc1ccc(C(=O)Nc2ccc(-c3nc4ncccc4o3)cc2C)cc1Br,6%
# (more compounds)
SMILES,VDR inh
CCOC(=O)c1cnc2c(ccc3ccccc32)c1Nc1cccc(OC)c1,1%
Cc1noc(C)c1NC(=O)Nc1cccc2c1O[C@H](CN(C)S(C)(=O)=O)[C@@H](C)CN([C@H](C)CO)C2=O,18%
Cc1cc2ncn(/N=C/c3ccc([N+](=O)[O-])s3)c2cc1C,4%
COC(=O)N/N=C(\C)c1ccccc1OC(F)F,-12%
O=C1N[C@H]2CC=C[C@H]2Nc2ccccc21,1%
Cc1ccc2nc(-c3ccc(NC(=O)COC(=O)c4ccc([N+](=O)[O-])o4)cc3)sc2c1,-13%
CNC(=O)C(NC(=O)CNC(=O)c1ccc(Cl)cc1)C(C)(C)C (configuration not stated),-3%
COC(=O)Cc1c(C)nc2nc(NCc3cccc([N+](=O)[O-])c3)[nH]n2c1=O,7%
CC1=CC(C)C(C[N+]2(C)CCCCC2)C(C)C1 (configuration not stated),-10%
CC(=O)N1CCCc2cc(S(=O)(=O)N3CCCC(C(=O)Nc4cc(C)ccc4C)C3)ccc21 (configuration not stated),4%
Cc1ccc(Nc2nc(N)c([N+](=O)[O-])c(N3CCC(C)CC3)n2)cc1C,-11%
COc1cc(OC)cc(C(=O)NC(C(=O)Nc2ccc(N3CCOCC3)cc2)C(C)C)c1 (configuration not stated),30%[activator]
Cc1c(O)nc(SCC(=O)Nc2ccc3c4c(cccc24)CC3)n(-c2ccccc2)c1=O,-15%
Cc1cc(F)ccc1N1CCC(N2CCN(CCC(C)C)C(CCO)C2)CC1 (configuration not stated),7%
CCN(Cc1ccccc1)S(=O)(=O)c1cc(C(=O)NC(C)C2CC3CCC2C3)ccc1OC (configuration not stated),-15%
Cc1ccc(OCC(=O)NC(=S)Nc2ccc(Br)cn2)cc1C,-7%
COc1ccc(CNc2nc3ccccc3n2C)c(O)c1,-10%
O=C(CSc1nnc(Cc2ccccc2)o1)NC1CCCCC1,-3%
COC(=O)c1cnn2c3c(c(C)nc12)CCCC3,4%
CCOCN(C(=O)Cn1cnc2ccccc21)c1c(C)cccc1CC,-4%
Cc1ccc(-c2noc(-c3ccc(N4CCN(C)CC4)c([N+](=O)[O-])c3)n2)cc1,17%
Clc1ccc2c(c1)C1=C(C(c3ccncc3)O2)C(c2ccc(Br)cc2)n2ncnc2N1 (configuration not stated),13%
COc1ccc(OC)c2[nH]c(=O)c(CCNS(=O)(=O)c3ccc(Cl)cc3)cc12,0%
CC1CN(c2nc3ccccc3nc2SCC(=O)Nc2cccc(C(F)(F)F)c2)CC(C)O1 (configuration not stated),-15%
CCC(C)(C)NC(=O)Cc1ccccc1OC,7%
# The list continues.
SMILES,VDR inh
COc1cccc(C(=O)Nc2ccc3oc(-c4ccc5ccccc5c4)nc3c2)c1,-18%
COc1ccc(-c2nc(C(=O)N3CCN(C)CC3)sc2-c2ccc(OC)cc2)cc1,?
CC(c1ccccc1)N1C(=O)c2ccc(C(=O)NCc3cccnc3)cc2C1=O (configuration not stated),-1%
CCN(CC)S(=O)(=O)c1ccc(/C=C/C(=O)Nc2cccc(F)c2)cc1,0%
O=C(CCc1nnc2n(Cc3ccc(F)cc3)c(=O)c3ccccc3n12)NCCCN1CCOCC1,5%
CCCNC(=O)c1c(N)n(-c2cc(OC)cc(OC)c2)c2nc3ccccc3nc12,-2%
OC1CCN(c2cc(-c3ccccc3)nc3cc(-c4ccc(F)cc4)nn23)CC1,-5%
Cc1ccc(C)c(NCCC#N)c1,-11%
CCCc1cc(=O)[nH]c(SCC(=O)N(C)C2CCS(=O)(=O)C2)n1 (configuration not stated),17%
COc1cc2c(cc1NC(=S)NC(=O)/C=C/c1ccc(OC)c(OC)c1)oc1ccccc12,-6%
COCC(=O)N(Cc1cc2ccc(C)cc2[nH]c1=O)c1ccc(OC)cc1,-11%
O=C(CSc1ccc([N+](=O)[O-])cn1)Nc1ccc2c(c1)OCO2,10%
FC(F)(F)c1cnc2c(-c3ccccc3)n[nH]c2c1,-6%
COc1cccc(OCC(Cn2c(C)nc3ccccc32)OC(C)=O)c1 (configuration not stated),-8%
Cc1ccc(N2C(=O)Nc3ccccc3S2(=O)=O)cc1Cl,-5%
O=C1c2cccc(O)c2C(=O)c2c(O)cccc21,?
COc1cc(OC)cc(-c2nc3nc(C)c(CCC(=O)Nc4ccc(C)cc4)c(C)n3n2)c1,-18%
O=C(CSc1nc(Nc2ccccc2)c2ccccc2n1)c1ccc(Cl)cc1,5%
COc1cccc(C2=NS(=O)(=O)N(C)C(C(=O)Nc3cccc(O)c3)=C2)c1,13%
COc1ccc(-c2csc(=NCCO)n2-c2ccccc2)cc1,-17%
CCCCN(C)Cc1cc(=O)oc2ccc3ccccc3c12,8%
Cc1cc(C)n2nc[n+](C)c2n1,16%
CCn1c(CCNC(=O)c2cccs2)nnc1SCC(=O)NC1CCCCC1,-1%
Cn1c2ccc(F)cc2c2nc3ccccc3nc21,14%
NS(=O)(=O)c1ccc(CCNC(=O)COC(=O)/C=C/c2cc(Br)ccc2F)cc1,7%
# (cont.)
SMILES,VDR inh
Cc1nn(C)cc1S(=O)(=O)Nc1ccc(F)c(F)c1,24%
CCC(CCC(=O)Nc1ccn(-c2ccccc2)n1)C(=O)O (configuration not stated),-9%
COc1ccc(OC(=O)c2cn(C)nc2C(F)(F)F)cc1,2%
CCOc1ccc(CCNC(=O)c2cccc(-n3cnnn3)c2)cc1OCC,11%
O=C(O)CC12C[C@H]3C[C@@H](C1)CC(n1ncc(N4CCN(c5ccccc5)CC4)c(Cl)c1=O)(C3)C2,8%
O=c1cc(O)nc[nH]1,9%
Cc1ccccc1OC(C)C(=O)Nc1ccc(S(=O)(=O)N2CCCC2)cc1 (configuration not stated),6%
Cc1ccccc1-c1nc(CN2CCC(C(=O)NCCCN3CCCC(C)C3)CC2)c(C)o1 (configuration not stated),-10%
Cc1noc(C)c1CS(=O)(=O)c1ccc(Br)cc1,-22%
Cc1c(C#N)c(O)n(CCO)c(=O)c1N=Nc1ccccc1,8%
CCSc1nc2ccccc2n1Cc1nc(N)nc(N(C)C)n1,1%
CCCC(=O)Nc1cc2c(cc1C(=O)c1ccccc1)OCCO2,10%
COc1ccc(OCC(=O)OCC(=O)Nc2ccc3[nH]c(=O)[nH]c3c2)cc1,-2%
CC1CCc2nc3ccc(S(=O)(=O)N4CCC(C(=O)N5CCCCCC5)CC4)cc3c(C(=O)O)c2C1 (configuration not stated),2%
Cn1c(SCC(=O)N2CCOCC2)ncc(C(=O)Nc2ccc(F)cc2)c1=O,-3%
CC(C)=O,-12%
CC(C)c1cnc2c(c1SCC(=O)NCc1ccccc1Cl)c(=O)n(C)c(=O)n2C,5%
CCOc1ccc(CCNC(=O)c2cc3cc4cc(OC)ccc4nc3s2)cc1OCC,-5%
Cc1ccc(SCC2(O)CCN(S(=O)(=O)c3ccc(Cl)cc3)CC2)cc1,-8%
CCOc1ccc(CN(C)C(=O)c2cccc(S(=O)(=O)N3CCCC3)c2)cc1OC,-9%
CSc1ccc(CN(C)CC(=O)NCCc2ccccc2)cc1,-18%
COC(=O)C1(C)NC(c2ccccc2OC)C2C(=O)N(c3ccccc3)C(=O)C21 (configuration not stated),-5%
COc1ccc(NC(=O)NC2COc3ccccc3C2)c(OC)c1 (configuration not stated),4%
Cc1cc(C)nc(SCc2nnc(SCC(=O)N3CCCc4ccccc43)n2C)n1,-9%
COc1ccc(N2C(=O)CC(Sc3nnc(-c4ccccc4F)n3C)C2=O)cc1 (configuration not stated),-18%
# (continued)
SMILES,VDR inh
Cc1cc(NC(=O)N(C)CCc2c(C)nn(C)c2C)ccc1Br,5%
COc1cccc(CN2CCN(C(=O)c3ccc(-c4ccccc4)cc3)CC2)c1,0%
COc1ccc2[nH]cc(CCNc3cc(-c4cccnc4)ncn3)c2c1,?
CC1(C)CC(N2CCN(c3ccccc3)CC2)=CC(=[N+]2CCCC2)C1,0%
Cc1ccc(N2CCCC2=O)cc1S(=O)(=O)N1CCOCC1,0%
O=C(Nc1ccccc1C(=O)OCC(=O)c1c[nH]c2ccccc12)c1ccco1,-4%
CS(=O)(=O)Cc1nc2ccccc2oc1=O,7%
COc1cc(CC(=O)OCC(=O)Nc2ccc(N(C)C)cc2)cc(OC)c1OC,-14%
CCOC(=O)Cn1cnc2sc(C(=O)OC)c(C)c2c1=O,2%
CCOc1cc(NC(=O)C2CC2)c(OCC)cc1NC(=O)c1cc(OC)c(OC)c(OC)c1,-8%
O=C1CCCN2N=C(SCC(=O)Nc3nc4ccccc4s3)SC2=N1,-9%
COc1ccc(NC(=O)c2cc3nc(-c4ccc(C)c(C)c4)cc(C(F)(F)F)n3n2)cc1,-14%
COc1ccc2oc(=O)cc(CN3CCOCC3)c2c1,5%
CC(=O)Oc1ccc(C(=O)[C@H]2[C@H]3C(=O)N(c4ccc5ccccc5c4)C(=O)[C@H]3[C@@H]3C=CC=NN32)cc1,12%
O=C(Nc1cc(S(=O)(=O)N2CCCCC2)ccc1N1CCOCC1)c1ccc(C(F)(F)F)cc1,5%
Cc1ccc(-c2cn3c(n2)sc2cc(C(=O)NCc4cccs4)ccc23)cc1,2%
CCCCn1c(C)csc1=Nc1cccnc1,13%
O=C(CCC1CCN(C(=O)c2cc(C(F)(F)F)ccc2Cl)CC1)NC1CC1,-3%
Cc1ccc(CN2CCS(=O)(=O)CC2)cc1,7%
CCOc1ccc(NC(=O)C(CC)n2nc(-c3ccc(C)c(C)c3)ccc2=O)cc1 (configuration not stated),9%
Cc1cccc(CSc2nc3c(c(=O)n2C)SCC3)c1,-3%
CSc1ccc(CCNC(=O)C2CCCN(S(=O)(=O)N3CCOCC3)C2)cc1 (configuration not stated),-18%
CCOC(=O)c1sc(=S)n(CC)c1N,6%

# Assay outcomes as filed in PubChem.

# These rows are one share of the data (hit frequency here may not be typical).
